High-throughput results (PubChem)
D2 ag – activates the human D2 dopamine receptor; DiscoveRx PathHunter D2 beta-arrestin, luminescence, 90 min; 100% = 57 uM dopamine signal; activation, % (concentration not given with the values); 360,000 compounds, 0.084% hits; AID 624465; in the data active = activation above about 40%; inconclusive = about 15% to 40%; inactive = below about 15%; also: the text of the record calls up to 30% inactive
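DiscoveRx PathHunter D2 beta-arrestin cells (2,100/well) attached overnight, then compound-stimulated 90 min at 37 C in HBSS/10 mM HEPES/0.1% Tween-20 buffer; beta-galactosidase complementation read by luminescence after 1 h at ambient temperature. Dopamine 57 uM final (EC100) as control.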
Six1-Eya2 inh – inhibitors of human Six1/Eya2 interaction; Q15475+O00167; AlphaScreen GST-Six1/His-Eya2 binding, biochemical; active compounds read low; control for the full effect not named in the record; activity change, % (no concentration beside the values); 360,000 compounds, 0.56% hits; AID 651725; in the data active = activity change below about -65%; inconclusive = about -30% to -65%; inactive = above about -30%; also: % is scaled to controls: 0 for no effect and ±100 for the full control effect
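GST-Six1 + His-Eya2 (5X stock: 250/500 nM); Tris pH 8.0, 300 mM NaCl, 0.05% BSA, 0.02% Tween 20; GSH donor/Ni acceptor beads; 1 h 37 °C dark; AlphaScreen readout.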
CtBP-E1A blk – CtBP/E1A binding inhibition. activity change, % (concentration not given with the values). 340,000 compounds, 0.49% hits. AlphaScreen GST-E1A/His-CtBP binding, 1536-well; active compounds read low; control for the full effect not named in the record; in the data active means activity change below about -65%; inconclusive means about -30% to -65%; inactive means above about -30%; also: % is scaled to controls: 0 for no effect and ±100 for the full control effect
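Steps: dispense buffer (Tris pH 8.0, NaCl 300 mM, TCEP 1 mM, BSA, Tween 20); add 5X protein mix (GST-E1A, His-CtBP, 125 nM each); pin 23 nL compound; 2 h at 37 °C, dark; add 5X beads (50 ug/mL); 1 h; read.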
PINK1 expr mod – modulators of PINK1 expression; PINK1 immunofluorescence, high-content cytometry, 24 h; Potency, µM (highest dose often 76.6 µM), without a hit: top-dose activation (PINK1 increase), hits mostly activators; 410,000 compounds, 0.2% hits; AID 624263; active = well fitted activation curve with a large enough effect; inconclusive = small, poorly fitted or top-dose-only effect; inactive = flat fitted curve, though single readings scatter; cell line not stated here;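 also: potency is read from the fitted curve at half-maximal effect; % of control where 0% means no effect; nearly all actives have a fitted effect of over 65% in size; a mitochondrial uncoupler was the plate control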
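Compound titrations (5 concentrations, 24 h) on a stable cell line; DMSO and CCCP controls. Endpoint: fixed-cell PINK1 immunofluorescence with mitochondrial, cell and nuclear markers, scanned by microplate cytometer.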
D2 potentiator – positive allosteric modulators of human D2 dopamine receptor. AID 624464. 360,000 compounds, 0.23% hits. P14416. DiscoveRx D2 beta-arrestin cells, luminescence, 90 min; 100% = 57 uM dopamine signal. potentiation, % (no concentration beside the values); active = potentiation of 50% or more; inconclusive = 30% to 50%; inactive = 30% or less;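 also: compound concentration not given in the record; tested on top of an EC20 dose of dopamine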
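D2 cells co-treated with compound plus 50 nM dopamine (EC20) for 90 min at 37 deg C to detect potentiation. Beta-arrestin recruitment was read as enzyme-fragment luminescence after 1 h at ambient temperature. Full response was set by 57 uM dopamine.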
TRPV1 potentiator – potentiators of human vanilloid receptor 1 (TRPV1); Q8NER1; TRPV1-expressing cells, Fluo-8 calcium influx, capsaicin EC20 potentiation; host cell line not named in the record; control for the full effect not named in the record; potentiation, % at 8.33 µM; 320,000 compounds, 0.02% hits; AID 540277; active means potentiation above 80%; inconclusive means 30% to 80%; inactive means below 30%; also: 0% is about no effect
Target sequence (Q8NER1 whole entry, looked up): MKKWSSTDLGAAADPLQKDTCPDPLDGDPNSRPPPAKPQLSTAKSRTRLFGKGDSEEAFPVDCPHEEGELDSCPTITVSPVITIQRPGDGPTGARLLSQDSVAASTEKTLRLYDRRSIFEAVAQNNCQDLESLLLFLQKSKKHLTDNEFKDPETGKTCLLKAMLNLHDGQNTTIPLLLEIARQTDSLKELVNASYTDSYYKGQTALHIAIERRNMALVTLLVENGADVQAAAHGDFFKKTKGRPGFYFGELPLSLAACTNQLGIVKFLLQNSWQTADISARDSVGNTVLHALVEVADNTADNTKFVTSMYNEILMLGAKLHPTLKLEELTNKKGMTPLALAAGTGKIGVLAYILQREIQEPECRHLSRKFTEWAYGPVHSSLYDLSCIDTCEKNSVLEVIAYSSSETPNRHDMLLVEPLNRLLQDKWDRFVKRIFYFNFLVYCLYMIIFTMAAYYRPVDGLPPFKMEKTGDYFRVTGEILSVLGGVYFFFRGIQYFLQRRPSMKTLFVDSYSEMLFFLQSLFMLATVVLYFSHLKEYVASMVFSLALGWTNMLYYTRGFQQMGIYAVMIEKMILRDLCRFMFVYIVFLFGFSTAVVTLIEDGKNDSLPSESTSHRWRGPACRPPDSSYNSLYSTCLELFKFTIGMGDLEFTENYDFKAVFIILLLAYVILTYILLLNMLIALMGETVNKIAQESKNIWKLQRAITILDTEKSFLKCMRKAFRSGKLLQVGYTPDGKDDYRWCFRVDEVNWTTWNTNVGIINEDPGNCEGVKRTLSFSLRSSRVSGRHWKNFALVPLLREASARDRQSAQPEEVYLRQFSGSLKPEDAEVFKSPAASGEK
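Cells expressing TRPV1 were dye-loaded with Fluo-8 and read kinetically: 10 s baseline, 3 min after compound (agonist portion), then 2 min after EC20 capsaicin (allosteric enhancer portion). Calcium-bound dye fluorescence at 480/520 nm.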
Sfp PPTase inh – inhibitors of Bacillus subtilis Sfp phosphopantetheinyl transferase | 310,000 compounds, 3.5% hits | Q9F4F7 | Potency, µM, without a hit: max response, negative = inhibition, actives largely listed as inhibitors | AID 1490 | Biochemical Sfp PPTase activity, qHTS; active = well fitted inhibition curve with a large enough effect; inconclusive = small, poorly fitted or top-dose-only effect, or another doubt; inactive = no such curve, though single readings can be large or run the other way;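 also: the enzyme is Sfp with the accession as filed and its product quenches rhodamine fluorescence; potency is read from the fitted curve at half-maximal effect; 0% = enzyme reaction without inhibitor and -100% = no enzyme wells; top concentration of the series not given in the record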
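Buffer: 50 mM Hepes-Na pH 7.6, 10 mM MgCl2, 0.01% Nonidet P-40, 0.01% BSA. Enzyme 15 nM, pre-exposed to compound 15 min; substrates then added and fluorescence change tracked over 30 min.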
Numbers without * were called inactive; [ ] = remark or other dose.

COc1ccc(OC)c(NC(=O)c2cc3c(=O)n4ccccc4nc3n2C)c1 was read as D2 ag -4.6, Six1-Eya2 inh 6.5, CtBP-E1A blk -15.2, PINK1 expr mod 0.6%, D2 potentiator -1.4, TRPV1 potentiator 9.9 and Sfp PPTase inh -20.4%.
CC1CCN(C(=O)CSc2nc(=O)n3ccccc3n2)CC1 was read as D2 ag -1.2, Six1-Eya2 inh 3.6, CtBP-E1A blk 1.6, PINK1 expr mod 0.2%, D2 potentiator -5.0 and TRPV1 potentiator 12.3.
`O=C(Cc1ccccc1)c1nc2ccccc2s1` gave D2 ag -20.4, Six1-Eya2 inh 14.5, CtBP-E1A blk -15.1, PINK1 expr mod 3.0%, D2 potentiator -33.3, TRPV1 potentiator -3.2 and Sfp PPTase inh inconclusive.
Screening CCc1ccc(C(=O)OCC(=O)NC2CCCC2)cc1 returned D2 ag -0.1, Six1-Eya2 inh 1.0, CtBP-E1A blk 1.6, PINK1 expr mod 1.1%, D2 potentiator -3.8, TRPV1 potentiator 3.0 and Sfp PPTase inh 3.6%.
O=C(NCCCl)Nc1ccc(Cl)c([N+](=O)[O-])c1 was read as D2 ag -3.3, Six1-Eya2 inh 9.3, PINK1 expr mod 2.0%, D2 potentiator -9.2, TRPV1 potentiator 10.4 and Sfp PPTase inh 18.3%.
For O=[N+]([O-])c1cc(C(F)(F)F)ccc1NN=C1CCCC1 the results were D2 ag -6.7, Six1-Eya2 inh -21.7, CtBP-E1A blk inconclusive, PINK1 expr mod 2.5%, D2 potentiator -9.3, TRPV1 potentiator -11.3 and Sfp PPTase inh 13.8%.
O=C(/C=C/c1ccc(F)cc1)NC(=S)N1CCN(c2ccccn2)CC1 was read as D2 ag 4.8, Six1-Eya2 inh -15.5, CtBP-E1A blk -74.5*, PINK1 expr mod 2.0%, D2 potentiator -7.0 and Sfp PPTase inh -5.9%.
COc1cc2sc3ccc(-c4ccc(N(C)C)nc4)cc3c(=O)c2cc1OC was read as D2 ag 0.7, Six1-Eya2 inh 8.7, CtBP-E1A blk 1.9, PINK1 expr mod 2.8% and D2 potentiator 1.6.
For COc1ccc(S(=O)(=O)NCC2CCCN(C(=O)CSC)C2)cc1 (stereo unspecified) the results were D2 ag -2.8, Six1-Eya2 inh 0.4, CtBP-E1A blk 10.1, PINK1 expr mod 13.2%, D2 potentiator -3.0, TRPV1 potentiator 3.5 and Sfp PPTase inh 20.5%.
For Cc1ccc(-c2cc(C(F)F)nc(N3CCC(C)CC3)n2)cc1 the results were D2 ag -3.8, Six1-Eya2 inh 17.2, CtBP-E1A blk 21.9, PINK1 expr mod 2.1%, D2 potentiator 7.4 and Sfp PPTase inh 7.4%.
CCCS(=O)(=O)NCc1cn2cccc(C)c2n1 was read as D2 ag 2.5, Six1-Eya2 inh -3.8, CtBP-E1A blk -2.2, PINK1 expr mod -7.4%[38.3 µM], D2 potentiator -20.1, TRPV1 potentiator 0.0 and Sfp PPTase inh 3.3%.
For COCCC(=O)N1CCC(Oc2ccc(C(=O)N(C)C3CCCCC3)cc2)CC1 the results were D2 ag -4.2, Six1-Eya2 inh -1.6, PINK1 expr mod -0.5%, D2 potentiator -12.3, TRPV1 potentiator -10.8 and Sfp PPTase inh 14.8%.
O=C(O)c1cccc(-c2ccc(/C=N/Nc3ccc([N+](=O)[O-])cc3)o2)c1 was read as D2 ag -5.1, Six1-Eya2 inh -14.3, CtBP-E1A blk -6.8, PINK1 expr mod -0.7%, D2 potentiator -9.0, TRPV1 potentiator -16.6 and Sfp PPTase inh 0.4%.
Screening O=C1NN(c2ccccc2)C(=O)C1=Cc1ccccc1 returned D2 ag -7.3, Six1-Eya2 inh -0.9, CtBP-E1A blk -1.6, PINK1 expr mod 1.2% and D2 potentiator -13.6.
Screening COc1ccc(S(=O)(=O)NC(=O)C2(C)CCN2C(=O)c2cccc(F)c2)cc1 (stereo unspecified) returned D2 ag -3.9, Six1-Eya2 inh 2.5, CtBP-E1A blk 1.4, PINK1 expr mod 0.0% and D2 potentiator -8.8.
`O=C(CSc1nnc(COc2ccc3c(c2)CCCC3)o1)Nc1ccc(F)cc1` gave D2 ag 0.8, Six1-Eya2 inh -3.5, CtBP-E1A blk 26.8, PINK1 expr mod 2.3%[38.3 µM], D2 potentiator -4.0, TRPV1 potentiator -8.1 and Sfp PPTase inh 9.8%.
For COC(=O)c1ccc2nc(C)cc(Nc3ccc(N(C)C)cc3)c2c1 the results were D2 ag -2.5, Six1-Eya2 inh -20.1, CtBP-E1A blk -11.9, PINK1 expr mod 1.6%, D2 potentiator -7.6, TRPV1 potentiator 16.6 and Sfp PPTase inh -5.8%.
CCCCN1CC(COCc2ccccc2)OCCS1(=O)=O (stereo unspecified) was read as D2 ag 0.4, Six1-Eya2 inh -4.5, CtBP-E1A blk 3.8 and PINK1 expr mod 0.0%.
For CCOC(=O)c1c(/N=C/c2ccccc2O)sc2c1CCC2 the results were D2 ag -1.3, Six1-Eya2 inh -9.0, CtBP-E1A blk -10.3, PINK1 expr mod 3.6%, D2 potentiator -6.3, TRPV1 potentiator 0.7 and Sfp PPTase inh -14.1%.
Screening O=C(Nc1ccc(S(=O)(=O)Nc2nccs2)cc1)C1=NN(c2ccccc2)C(=O)CC1 returned D2 ag 0.1, Six1-Eya2 inh -0.5, CtBP-E1A blk -15.1, PINK1 expr mod -0.4%, D2 potentiator 5.9, TRPV1 potentiator 6.6 and Sfp PPTase inh 4.1%.
Screening C=CC(=O)Nc1ccc(Nc2ccnc(Nc3ccc(N4CCN(C)CC4)cc3)n2)cc1 returned D2 ag 0.1, Six1-Eya2 inh -27.0, CtBP-E1A blk inconclusive, PINK1 expr mod -0.8% and D2 potentiator -12.3.
For N=C(N)N=Nc1c(O)[nH]c2ccc(Br)cc12 the results were D2 ag -6.8, Six1-Eya2 inh inconclusive, CtBP-E1A blk -13.2, PINK1 expr mod 2.2%, D2 potentiator -12.3, TRPV1 potentiator 1.2 and Sfp PPTase inh 3.3%.
For COc1ccc(C(=O)C2CCCCC2=O)cc1 (stereo unspecified) the results were D2 ag -2.4, Six1-Eya2 inh 2.4, CtBP-E1A blk -0.6, PINK1 expr mod 0.3%, D2 potentiator -4.8, TRPV1 potentiator -5.8 and Sfp PPTase inh 18.2%.
CCCc1cc(=O)[nH]c(SCC(=O)N2CC3(C)CC2CC(C)(C)C3)n1 (stereo unspecified) was read as D2 ag -0.9, Six1-Eya2 inh 1.0, CtBP-E1A blk 2.6, PINK1 expr mod -0.7%, D2 potentiator 0.3 and TRPV1 potentiator -4.3.
`CCN(CC)S(=O)(=O)c1cccc(C(=O)Nc2ccccc2)c1` gave D2 ag -0.3, Six1-Eya2 inh 3.1, CtBP-E1A blk 0.8, PINK1 expr mod -0.2%, D2 potentiator -0.9, TRPV1 potentiator -3.0 and Sfp PPTase inh 18.2%.
For Cc1sc2ncnc(N3CCN(CCOc4ccc(Cl)cc4)CC3)c2c1C the results were D2 ag 1.8, Six1-Eya2 inh -6.0, CtBP-E1A blk -20.4, PINK1 expr mod 3.3%[38.3 µM], D2 potentiator -4.1, TRPV1 potentiator 4.6 and Sfp PPTase inh 0.9%.
For Cc1onc(-c2ccccc2Cl)c1C(=O)Oc1cc(N)n(S(=O)(=O)c2ccc(F)cc2)n1 the results were D2 ag -1.6, Six1-Eya2 inh -81.3*, CtBP-E1A blk inconclusive, PINK1 expr mod 2.5%, D2 potentiator -6.7, TRPV1 potentiator 3.6 and Sfp PPTase inh 21.5%.
Screening COc1ccc(CCNc2cc(C)[nH]c(=O)c2)cc1OC returned D2 ag -0.6, Six1-Eya2 inh 2.6, CtBP-E1A blk 5.9, PINK1 expr mod 1.5%, D2 potentiator -6.5, TRPV1 potentiator -0.9 and Sfp PPTase inh 3.5%.
Screening CCOc1ccc(CC(=O)N/N=C/c2cccnc2)cc1 returned D2 ag -0.2, Six1-Eya2 inh 6.0, CtBP-E1A blk 7.0, PINK1 expr mod -0.5%, D2 potentiator -10.1, TRPV1 potentiator 6.2 and Sfp PPTase inh 14.3%.
`O=C(OCC(=O)N1CCc2ccccc21)c1cccnc1Cl` gave D2 ag 2.2, Six1-Eya2 inh -3.5, CtBP-E1A blk 5.0, PINK1 expr mod inconclusive, D2 potentiator -1.0, TRPV1 potentiator 8.8 and Sfp PPTase inh 8.0%.
Screening O=C1CN(C(=O)c2ccc(Br)o2)C(c2ccccc2)c2cc(Br)ccc2N1 (stereo unspecified) returned D2 ag 5.2, Six1-Eya2 inh -22.1, CtBP-E1A blk -12.5, PINK1 expr mod 0.4%, D2 potentiator 4.5 and Sfp PPTase inh -5.5%.
`CN(C)c1ccc(N2C(=NC(=O)c3ccccc3)SC3CS(=O)(=O)CC32)cc1` (stereo unspecified) gave D2 ag -2.7, Six1-Eya2 inh -10.3, CtBP-E1A blk -1.3, PINK1 expr mod -0.6%, D2 potentiator -9.1, TRPV1 potentiator 17.5 and Sfp PPTase inh 2.2%.
Cc1ccc(NC(=O)c2ccc(CSc3nnc(-c4ccncc4)n3C)cc2)c(C)c1 was read as D2 ag -2.8, Six1-Eya2 inh 6.6, CtBP-E1A blk 2.1, PINK1 expr mod 2.6%, D2 potentiator 8.4 and Sfp PPTase inh -12.9%.
For O=C(C[C@H]1C/C=C\CCCC(=O)OC[C@H]2CCCN2C1=O)NCCO the results were D2 ag -2.3, Six1-Eya2 inh 7.3, CtBP-E1A blk -2.6, PINK1 expr mod 1.8% and D2 potentiator -8.6.
Screening COc1cccc(CN2CC(C(=O)NCCN3CCOCC3)CCC2=O)c1 (stereo unspecified) returned D2 ag 1.5, Six1-Eya2 inh -1.3, CtBP-E1A blk 3.6, PINK1 expr mod 0.0%, D2 potentiator -4.8, TRPV1 potentiator -14.2 and Sfp PPTase inh 18.3%.
`Cc1cc(C)c2c(C)[nH]nc2n1` gave D2 ag -1.2, Six1-Eya2 inh -3.2, CtBP-E1A blk -6.0, PINK1 expr mod -1.0%, D2 potentiator -5.9, TRPV1 potentiator -2.4 and Sfp PPTase inh -2.6%.
